Bioassay records deposited in PubChem by Fisher Drug Discovery Resource Center.
NPYLR7 ag – agonists of mosquito NPYLR7 receptor, primary screen, cell-based, Aedes aegypti, calcium fluorescence, mosquito biting behavior; Aedes aegypti neuropeptide Y-like receptor 7 (NPYLR7); HEK293T NPYLR7/Galpha15, GCaMP6s calcium fluorescence; activation, % at 10 µM; actives 0.15% (n = 270,000); in the data active = activation above about 40%;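 note: 0% = vehicle and 100% = reference agonist at the receptor; some compounds past the cut are filed as inactive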
NPYLR7 ag max-min – second read-out of NPYLR7 ag, no call of its own (marks repeat the call); activation, %; measured here: Max-Min RFU normalised activation; some inactives read as strong as hits;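 span of the calcium signal over five minutes; 0% = vehicle and 100% = native peptide agonist; compound fluorescence can raise it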
The depositor's hits bear a star; & = joins results of further samples. An excerpt; rates above refer to the full screens.

A first look, 2 compounds:
Screens in order: NPYLR7 ag | NPYLR7 ag max-min
Cc1cccc(CN(C)C(C)C(=O)N2CCN(c3ccccc3O)CC2)n1 (stereo not given)
  13&20 | 12&25
Cc1ccc(-n2cc(C)cn2)c(NC(=O)c2ccncc2)c1
  6 | 1

Results, previewed entries included:
Screens in order: NPYLR7 ag | NPYLR7 ag max-min
Cc1cccc(CN(C)C(C)C(=O)N2CCN(c3ccccc3O)CC2)n1 (stereo not given)
  13&20 | 12&25
Cc1ccc(-n2cc(C)cn2)c(NC(=O)c2ccncc2)c1
  6 | 1
CC(C)(C)CN1CCCC2(CCN(C(=O)CSc3ccccc3)C2)C1=O (stereo not given)
  4 | 4
O=C(NCCC(=O)N1CCCC1)c1ccccc1Cl
  2 | 2
Cc1occc1C(=O)NC1CCCc2nc(N3CCC(CO)CC3)ncc21 (stereo not given)
  1 | -1
CCOc1ccc(NC(=O)/C=C/c2ccc([N+](=O)[O-])cc2)c([N+](=O)[O-])c1
  -5 | -6
O=S(=O)(NC1CCCc2ccccc21)N1CCOCC1 (stereo not given)
  0 | -3
COc1ccc(C(=O)N(C)Cc2ccsc2)c(O)c1
  1 | 0
O=C1OC(C(=O)n2ccccc2=NC2CCCCC2)Cc2ccccc21 (stereo not given)
  4 | 10
COC(=O)c1c(C)[nH]c(C(=O)NCC2CCCN(C(C)C)C2)c1C (stereo not given)
  3 | 0
O=C(CSc1nnc(-c2ccc(F)cc2)o1)N1CCc2ccccc21
  25 | 17
CCC1SC(c2cccc(F)c2)N(CCN2CCN(C(=O)Nc3ccccc3OC)CC2)C1=O (stereo not given)
  8 | 15
CCCCN(CC(=O)N(CCc1ccc(OC)c(OC)c1)Cc1cccs1)C(=O)Nc1ccc(F)cc1F
  -15 | -8
Cc1ccc(Cc2nsc(N3CCC(CNC(=O)Nc4cccc(C#N)c4)CC3)n2)cc1
  21 | 16
C1CCN=C(NCC2CCCO2)CC1 (stereo not given)
  15 | 7
CNc1nc2cnc(Nc3cccc(NC(C)=O)c3)cc2n1CC1CC1
  9 | 2
CCOc1ccccc1-c1cc(C(=O)OC)n(C)c1
  7 | -3
O=C1CSC(c2ccccc2Cl)N1CC(O)c1ccccc1 (stereo not given)
  -2 | -7
COc1ccc(-c2cc(N)ccc2OC(F)F)cc1
  7 | 4
c1csc(-c2nnc(CON=C3c4ccccc4-c4ccccc43)o2)c1
  3 | 31
COCCCN1C(=O)N(Cc2ccccn2)C(=O)C12CCN(Cc1cn(C)c3ccccc13)CC2
  19 | 10
COc1ncc(-c2cccc(C(C)N3CCCC3)c2)c(OC)n1 (stereo not given)
  13 | 12
Cc1ccccc1C(=O)N1CCC(NS(=O)(=O)c2ccccc2)CC1
  0 | -4
O=S(=O)(c1cccc(Cl)c1)N1CCN(c2nccc(-c3cccc(C(F)(F)F)c3)n2)CC1
  13 | 24
Cc1cccc(N=Nc2c(O)[nH]c3ccc([N+](=O)[O-])cc23)c1C
  0 | -1
COc1ccc(C(=O)N2CCCC2(C)C(=O)O)c(OC)c1 (stereo not given)
  1 | -1
CCOC(=O)c1cnc(SC)nc1-c1c(OC)cccc1OC
  4 | 4
CO[C@@H]1CC[C@H]2C[C@@H]1[C@@H](Oc1ccccn1)CN2S(C)(=O)=O
  25 | 32
O=C(NCCNc1nc(-c2cccc(Br)c2)nc2ccccc12)c1ccc(F)cc1
  1 | 16
COC1CCN(C(=O)NC(C)c2cc(C)ccc2C)CC1 (stereo not given)
  6 | 3
CCOc1ccc(C2c3cccn3CCCN2Cc2ccccc2OC)cc1 (stereo not given)
  20 | 24
CCN(CC)c1ccc(/C=C(\C#N)c2[nH]nc(N)c2C#N)c(OC)c1
  8 | 6
O=C(c1ccccc1)N1CCN(S(=O)(=O)c2c[nH]c3ncccc23)CC1
  -1 | -4
COc1ccc(Oc2ccc(C(=O)NCCN3CCNC3=O)cc2)cc1
  1 | -2
COCC1(C(=O)N(Cc2sccc2C)CC(C)C)CCC1
  0 | -2
CC[n+]1ccccc1/C=C/c1cc[nH]c1
  3 | 8
CCc1nc2ccc(C(=O)N(C)CCCN(C)C)cn2c1N(C)C(=O)c1cccc(OC)c1
  4 | 15
CCc1nc(C)ccc1OCC(=O)NC1CC(=O)N(C2CCCCCC2)C1 (stereo not given)
  18 | 8
COc1ccc(C(CC(=O)NCc2ccc(F)cc2)c2c[nH]c3ccccc23)c(OC)c1 (stereo not given)
  1 | 6
CCc1ccc(/C=C/c2nc3ccccc3[nH]c2=O)cc1
  -8 | -7
Cc1ccc2oc(C(=O)NC3CCN(Cc4ccccc4)C3)cc(=O)c2c1 (stereo not given)
  -1 | -1
CC(C)=CC(=O)N1CC[C@@H](N2CCN(CCc3ccccc3)CC2)[C@H](O)C1
  23 | 7
Cc1noc(C(C)C)c1C(=O)NC(C)c1cccc(Br)c1 (stereo not given)
  -1 | -1
COc1cc(C2SCC(=O)N2CCN2CCCCC2)cc([N+](=O)[O-])c1O (stereo not given)
  9 | 8
CCOC(=O)c1nn(-c2ccccc2C)c(=O)cc1OS(=O)(=O)c1cccc(C)c1
  -1 | 5
COc1ccc(OC)c(NC(=O)C(C)S(=O)Cc2ccccc2C(F)(F)F)c1 (stereo not given)
  0 | 0
Cc1cc(C)n(-c2ccc(NC(=O)C3CCCCN3C(=O)C3=CCCCC3)cc2)n1 (stereo not given)
  12 | 9
Cc1cccc(Cn2c(NCCN(C)C)nc3c2c(=O)n(C)c(=O)n3C)c1
  3 | -1
CCCn1ncc(CN2CCC(Cc3ccccc3C(F)(F)F)(C(=O)OCC)CC2)c1C
  9 | 14
Cc1cc(NC(=O)Cc2ccccc2)n(-c2ncnc3c2cnn3-c2cccc(C)c2C)n1
  5 | 6

Other records:
Screens in order: NPYLR7 ag | NPYLR7 ag max-min
CC(C)CN1CCC(C2CCN(c3ncnc4nc[nH]c34)C2)CC1 (stereo not given)
  4 | 1
C#CCN(C)C(=O)c1ccc(-n2nc(C(=O)OCC)cc2-c2ccc(Cl)cc2)cc1
  1 | -4
CC(C)CN(C)C(=O)c1cn(C(c2ccccc2)c2ccccc2)nn1
  -5 | -9
COc1ccc2c(c1)CC(NCc1noc(-c3ccco3)n1)CC2 (stereo not given)
  12 | -1
Cc1nccn1CCC1CCCCN1C(=O)NC1CCCCC1 (stereo not given)
  2 | 42
COC(OC)C12c3ccccc3C(c3ccccc31)C1C(=O)N(C(C)(C)C)C(=O)C12 (stereo not given)
  -7 | -7
COc1ccc(N2C(=O)/C(=C\c3cn(C)c4ccccc34)C(=O)NC2=S)cc1
  -8 | -12
Cc1cc2nc(NC3CCCC3)c3ccccc3n2n1
  0 | 17
CCc1nc2ccc(C(=O)NCc3ccc(OC)cc3)cn2c1N(C)Cc1ccc(N(C)C)cc1
  4 | -5
CNC(=O)[C@@]1(OCc2cccc(C)c2)CC(OCc2cccc(OC(F)(F)F)c2)[C@@H]2OC(C)(C)O[C@@H]2C1 (stereo not given in full)
  7 | 20
Brc1ccc(-c2csc(NN=Cc3ccco3)n2)cc1
  -4 | -14
Cc1cc2ncn(S(=O)(=O)c3ccc(Br)cc3)c2cc1C
  2 | 1
C=CCN1Cc2cc(F)ccc2N(CC(O)COC(C)(C)C)CCC1=O (stereo not given)
  0 | -3
COc1ccc(-c2nn(-c3ccccc3)c(OC(C)=O)c2-c2ccc(NC(=O)c3ccc4c(c3)OCO4)cc2)c(OC)c1
  -4 | 4
CC(C)(C)C(=O)NCC1CCN(Cc2ccc(-n3cccn3)cc2)C1 (stereo not given)
  4 | 2
CCOCCCN(Cc1nc(C(=O)OCC)cs1)C(=O)Nc1ccccc1F
  -8 | 0
CCOC(=O)c1nn(-c2ccccc2)c(=O)cc1NCc1ccccc1
  7 | 2
COc1ccc(-c2nc(CN(Cc3ccccc3)CC3CC3)c(C)o2)c(F)c1
  -3 | 0
Cc1ccsc1CN(Cc1ccc2c(c1)OCO2)C(=O)CN(C(=O)C1CC1)C1CCCCC1
  8 | 5
CC(C)CCN(Cc1ccc([N+](=O)[O-])cc1)Cc1cccn1Cc1ccc(C(F)(F)F)cc1
  2 | 11
COCCN(Cc1csc(COc2ccc(OC)cc2)n1)C(=O)c1ccc(Cl)cc1
  19 | 34
CCOc1ccc(S(=O)(=O)NCc2ccc3c(c2)OCO3)cc1OCC
  1 | 5
O=c1cc(CN2CCCC2c2ccccn2)c2cccc3c2n1CCC3 (stereo not given)
  -2 | -7
O=[N+]([O-])c1c(NC2CC2)ncnc1NC1CC1
  7 | 5
Cc1ccc(NC(=O)N2CCN(C(=O)C(C)n3cccn3)CC2)cc1 (stereo not given)
  3 | 2
COc1ccc(-c2cc(N)n(-c3ccc(C(=O)NCC(c4ccccc4)c4ccccc4)cc3)n2)cc1
  -7 | -13
O=C(Nc1cc(Cl)ccc1F)c1ccc2c(c1)OCO2
  30 | 27
C/C(=N/N1C(=O)c2ccccc2C1=O)c1ccccc1O
  -10 | -11
CCC(=O)N(c1nnc(SCC(=O)c2ccc[nH]2)s1)C1CC1
  -6 | 1
CCN(CC)Cc1cnc2c(C(=O)NC3CCNC3=O)cnn2c1 (stereo not given)
  2 | 0
O=C1NCCN1CCn1ccnc1-c1cccc2c1oc1ccccc12
  4 | 3
CC(Cc1cn(CCn2[nH]c(=O)ccc2=O)nn1)c1ccccc1 (stereo not given)
  9 | 6
Cc1ccsc1C(=O)NC(C)(C)c1cn([C@@H]2CN[C@H](C(=O)O)C2)nn1
  3 | 1
Cc1cc(CNC2(CO)CCCC2)ccc1-n1cncn1
  4 | 1
NC(=O)c1cc2cc(Cl)ccc2oc1=Nc1cccc(F)c1
  -2 | -14
O=C(C1CCCN1S(=O)(=O)c1cccs1)N1CCN(c2nc3c(F)cc(F)cc3s2)CC1 (stereo not given)
  -2 | -2
Fc1ccc(N2CCN(c3nc(-c4cc5ccccc5o4)nc4ccccc34)CC2)c(F)c1
  0 | 7
COc1ccc(OC)c(-c2cnc(-c3cccc(CNC(=O)/C=C/c4ccccc4Cl)c3)[nH]2)c1
  2 | 2
O=C(Cc1cc(-c2cc3ccccc3o2)on1)NCc1ccco1
  10 | 14
COC(=O)c1cc(NC(=O)C2(c3ccccc3)CCC2)cc(C(=O)OC)c1
  -1 | -4

A different layout for 4 compounds above:
structure | NPYLR7 ag | NPYLR7 ag max-min
COc1ccc(Oc2ccc(C(=O)NCCN3CCNC3=O)cc2)cc1 | 1 | -2
COc1ccc(-c2nn(-c3ccccc3)c(OC(C)=O)c2-c2ccc(NC(=O)c3ccc4c(c3)OCO4)cc2)c(OC)c1 | -4 | 4
O=C1NCCN1CCn1ccnc1-c1cccc2c1oc1ccccc12 | 4 | 3
COC(OC)C12c3ccccc3C(c3ccccc31)C1C(=O)N(C(C)(C)C)C(=O)C12 (stereo not given) | -7 | -7

Next part.
Screens in order: NPYLR7 ag | NPYLR7 ag max-min
COc1ccc(-c2csc(NC(=O)c3ccc(C#N)cc3)n2)cc1C
  0 | -8
Cc1ccccc1-c1cccc(C(=O)N2CCOC3(CNCCOC3)C2)c1 (stereo not given)
  9 | 4
O=C(Cc1ccccc1)Nc1ccc(C2SCC(=O)N2c2cccc(F)c2)cc1 (stereo not given)
  -3 | 1
Cc1nc(-c2ccccc2)sc1C(=O)NCCCn1nc(-c2cccnc2)ccc1=O
  5 | 5
NS(=O)(=O)c1cc(C2(O)NC(=O)c3ccccc32)ccc1Cl (stereo not given)
  -7&-1&-5 | -14&-4&-7
Cc1ccc(-n2c(SCc3nc(C(=O)NCCN4CCCC4)cs3)nnc2-c2ccccc2Cl)cc1
  4 | 6
O=C(CCc1ccccc1)Nc1ccnn1C1CCN(Cc2ccc(F)c(F)c2)CC1
  0 | -3
Cc1ccccc1Oc1cc(N2CCN(C(=O)/C=C/c3ccccc3)C(C)C2)ncn1 (stereo not given)
  9 | 9
COc1ccc2o/c(=N\NC(=O)c3ccccc3OC)c(-c3nc4ccccc4[nH]3)cc2c1
  -8 | -15
S=c1[nH]nc2c3ccccc3ncn12
  -6 | 3
CC(=O)OC(CSC#N)SC#N (stereo not given)
  5 | 13
Cc1ccccc1Cn1cc(NC(=O)Nc2cccc(Cl)c2C)cn1
  -2 | -3
CCOC(=O)c1cn[nH]c1S(=O)(=O)N1CCN(C2CCCCC2)CC1
  1 | -5
CCOc1ccc(CN2C(=O)C3(SC(NC(C)=O)=NN3C(C)=O)c3cccc(C)c32)cc1 (stereo not given)
  -2 | -3
COc1cccc(CN2C(=O)c3cnc(-c4cccs4)nc3C[C@H]2Cc2ccccc2)c1
  20 | 16
CC1(C)OCC(C2OC(Nc3cccc(CC(=O)NCc4ccccn4)c3)[C@H]3OC(C)(C)O[C@@H]23)O1 (stereo not given in full)
  -2 | -11
CC(=O)c1cc(CN2CCc3c(cccc3NC(=O)c3ccncc3)C2)cs1
  -1 | -2
c1ccc(CN2CCC(NCc3cc(-c4ccco4)on3)CC2)nc1
  9 | 8
CCOC(=O)c1c(C)n(CC(O)c2ccc([N+](=O)[O-])cc2)c2ccc(O)c(C)c12 (stereo not given)
  1 | 0
COc1cccc(Cn2c(=O)c(C(=O)NCc3ccccn3)nn(-c3ccc(C(F)(F)F)cc3)c2=O)c1
  14 | 15

Some of the entries above in another layout.
CCOc1ccc(CN2C(=O)C3(SC(NC(C)=O)=NN3C(C)=O)c3cccc(C)c32)cc1 (stereo not given)
  NPYLR7 ag: -2; NPYLR7 ag max-min: -3
c1ccc(CN2CCC(NCc3cc(-c4ccco4)on3)CC2)nc1
  NPYLR7 ag: 9; NPYLR7 ag max-min: 8

Continuation.
Screens in order: NPYLR7 ag | NPYLR7 ag max-min
COc1cc(NC(=O)CN2C(=O)c3ccccc3C2=O)ccc1O
  5 | -6
Cc1ccc2cc(/C=N\Nc3nc(-c4ccccc4)c4cc(Cl)ccc4n3)c(Cl)nc2c1
  7 | 9
COCCNC(=O)c1ccccc1N1CCC(NC(=O)Nc2cccc(Cl)c2)CC1
  -2 | 0
CCNC(=O)c1ccc(-c2cccc(C(=O)O)c2)nc1
  -5 | 1
Cc1cccc(Nc2nnc(SC(C)C(=O)NC(N)=O)s2)c1 (stereo not given)
  -5 | -12
CCCS(=O)(=O)NC1CCN(c2ncc(C(F)(F)F)cc2Cl)CC1
  -2 | -3
